Assay outcomes as filed in PubChem.
MARV entry inh: qHTS for inhibitors of binding or entry into cells for Marburg Virus; Marburg virus pseudotyped entry inhibition, cell reporter; control for the full effect not named in the record; about a third of the inactives were read at about 46 µM; Potency, µM (highest dose often 37.8 µM), for the others: at the top dose activity change, negative = inhibition, actives largely listed as inhibitors; actives 1.8% (n = 300,000); active = well fitted inhibition curve with a large enough effect; inconclusive = small, poorly fitted or top-dose-only effect, or effect the other way; inactive = flat fitted curve, though single readings scatter; tested in HEK293 cells; about a fifth of its hits are not listed in these tables; further: on the % scale 0 is the no-effect control and ±100 the full control effect; luciferase read-out
NS1 function inh: qHTS Assay for Inhibitors of Influenza NS1 Protein Function | S. cerevisiae slowed by influenza A NS1, growth recovery by OD600 | AID 2326, 2010 | Potency, µM (top dose mostly 46.1 µM), for the others: at the top dose activity, positive = more growth | actives 0.4% (n = 270,000); active means well fitted rising curve with a large enough effect; inconclusive means small, poorly fitted or top-dose-only effect; inactive means no such curve, though single readings can be large or run the other way; further: nearly all actives have a fitted effect of over 50% in size
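In this qHTS, NS1 from influenza A is expressed in budding yeast, where it slows growth. Cells are switched from glucose to 2% galactose medium (pH 6.0, -URA), treated with compound, and growth recovery is read at OD600.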
StopGo reporter: High Throughput Screening for Foot and Mouth Disease Virus Antivirals; Potency, µM (top dose mostly 57.9 µM), without a hit: top-dose signal change, negative = less light; actives 1.2% (n = 410,000); human cells with a luciferase reporter of 2A StopGo recoding; control for the full effect not named in the record; active = well fitted falling curve with a large enough effect; inconclusive = small, poorly fitted or top-dose-only effect; inactive = no such curve, though single readings can be large or run the other way; tested in HEK293T cells; further: on the % scale 0 is the no-effect control and ±100 the full control effect; nearly all actives have a fitted effect of over 45% in size; luciferase light after 4 h
Cruzain inh Det: qHTS Assay for Promiscuous and Specific Inhibitors of Cruzain (with detergent) | AID 1478, 2009 | actives 0.43% (n = 200,000) | Potency, µM, without a hit: max response, negative = inhibition, actives largely listed as inhibitors | Cruzipain (Trypanosoma cruzi), P25779 | purified cruzain, Z-FR-AMC fluorescence, 0.01% Triton;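 further: plate controls were neutral wells for no effect and buffer without enzyme for full effect; nearly all actives have a fitted effect of over 40% in size; top concentration of the series not given in the record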
Target sequence (P25779 123-467 limits assumed): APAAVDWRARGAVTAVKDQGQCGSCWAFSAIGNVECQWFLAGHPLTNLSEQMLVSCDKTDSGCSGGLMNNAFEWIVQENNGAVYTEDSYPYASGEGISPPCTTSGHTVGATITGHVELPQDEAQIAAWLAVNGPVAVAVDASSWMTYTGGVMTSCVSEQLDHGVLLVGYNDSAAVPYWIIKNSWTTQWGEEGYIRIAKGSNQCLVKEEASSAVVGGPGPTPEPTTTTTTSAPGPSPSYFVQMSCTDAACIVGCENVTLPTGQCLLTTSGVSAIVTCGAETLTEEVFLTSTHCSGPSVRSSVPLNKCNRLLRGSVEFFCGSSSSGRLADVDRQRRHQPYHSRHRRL
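15 min RT preincubation of 1.5 nM cruzain with compound, then 2 uM Z-FR-AMC added; kinetic AMC fluorescence, 60 s delta. Triton X-100 0.01%, pH 5.5.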
Lassa entry inh: qHTS for Inhibitors of binding or entry into cells for Lassa Virus; Lassa virus pseudotype entry inhibition, cell reporter; control for the full effect not named in the record; Potency, µM (titrated, usually from 37.9 µM), without a hit: at the top dose activity change, negative = inhibition, actives largely listed as inhibitors; actives 1.2% (n = 300,000); AID 540256, 2011; active means well fitted inhibition curve with a large enough effect; inconclusive means small, poorly fitted or top-dose-only effect, or effect the other way; inactive means flat fitted curve, though single readings scatter; tested in HEK293 cells; further: on the % scale 0 is the no-effect control and ±100 the full control effect; nearly all actives have a fitted effect of over 50% in size; luciferase read-out
Cruzain inh noDet: qHTS Assay for Promiscuous and Specific Inhibitors of Cruzain (without detergent); purified cruzain, Z-FR-AMC fluorescence, no detergent; Cruzipain (Trypanosoma cruzi), P25779; AID 1476, 2009; actives 2.3% (n = 200,000); Potency, µM, inactives show max response, negative = inhibition, usual class: inhibitors;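 further: plate controls were enzyme without inhibitor for no effect and buffer without enzyme for full effect; nearly all actives have a fitted effect of over 40% in size; top concentration of the series not given in the record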
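Purified cruzain at 1.5 nM, pre-incubated 15 min with compound at room temperature in 100 mM sodium acetate pH 5.5, 5 mM DTT, 0.00005% Triton X-100. Reaction started with 2 uM Z-FR-AMC; AMC fluorescence increase over 60 s gives rate.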
SARS PLpro yeast: qHTS of Yeast-based Assay for SARS-CoV PLP | S. cerevisiae expressing SARS-CoV PLpro, growth rescue; control for the full effect not named in the record | Potency, µM (titrated, usually from 32.9 µM), inactives show at the highest dose activity, positive = growth rescue | actives 0.19% (n = 330,000); active means well fitted rising curve with a large enough effect; inconclusive means small, poorly fitted or top-dose-only effect; inactive means no such curve, though single readings can be large or run the other way; further: 0% is about no effect; nearly all actives have a fitted effect of over 55% in size; growth read by luminescence after 48 h
RE007 growth inh: qHTS Assay for Inhibitors of the HIV-1 protein Vpr; S. pombe RE007 Vpr strain, BacTiter-Glo ATP luminescence, 24 h; control for the full effect not named in the record; Potency, µM (series often up to 92.2 µM), for inactives: top-dose activity change, negative = less growth; actives 0.21% (n = 360,000); AID 651644, 2012; active = well fitted falling curve with a large enough effect; inconclusive = small, poorly fitted or top-dose-only effect; inactive = no such curve, though single readings can be large or run the other way;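 further: on the % scale 0 is the no-effect control and ±100 the full control effect; nearly all actives have a fitted effect of over 50% in size; the assay follows cell death caused by Vpr and the record does not say whether a fall means rescue or toxicity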
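Fission yeast RE007 carrying one integrated HIV-1 vpr copy, seeded at OD 0.01 in PMG+AL medium with 23 nL pinned compound. Grown 24 h at 30 degrees; viability read by BacTiter-Glo luminescence after 5 min.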
* marks the source's active call; other numbers are inactive results; ? = inconclusive; / = not tested or not shown; & = joins results of further samples; [ ] = remark or other dose. Unless noted, the call rests on the fitted dose curve; in most records, active means well fitted curve in the direction sought with a large enough effect; inconclusive means small, poorly fitted or top-dose-only effect, or another doubt; inactive means no such curve, though single readings can be large; an effect the other way counts as inactive or inconclusive. Potency means the concentration at half of the fitted maximal effect. Outcome played no part in choosing rows; any-hit rate near 4.8%.

Value order: NS1 function inh	MARV entry inh	Lassa entry inh	SARS PLpro yeast	RE007 growth inh	Cruzain inh noDet	StopGo reporter	Cruzain inh Det
[1] CCOC(=O)C1CCCN(c2c(NCC3CCCN3CC)c(=O)c2=O)C1 (stereo not drawn)
    3%	/	/	-2%	5%	10%	-5%	2.6%
[2] CCCn1nnc(NC(=O)/C=C/c2cc(Br)ccc2OC)n1
    /	-7%	-17%	-2%	13%	/	-8%	/
[3] CCN1CCN(S(=O)(=O)c2cccc([N+](=O)[O-])c2)CC1
    0%	-1%	-7%	-1%	0%	7%	-11%	1.3%
[4] COc1ccc(CC(=O)Nc2nnc(C(C)(C)C)s2)cc1OC
    4%	?	?	-1%	3%	/	?	/
[5] O=C(Cc1cccs1)Nc1ccc(F)cc1F
    1%	9%[46.1 µM]	18%[46.1 µM]	0%	-14%	/	2%	/
[6] Cc1cc(C(=O)COC(=O)c2cccc(O)c2)c(C)n1C1CC1
    /	?	?	-3%	14%	/	-31%	/
[7] CC(C)(C)n1nc2c(c1NC(=O)COc1ccc3ccccc3c1)CS(=O)(=O)C2
    -2%	-2%	0%	-1%	0%	-5%	-10%	1.0%
[8] CC(C)(C)N(CC#CCC(O)(c1ccccc1)C1CCCC1)CCO (stereo not drawn)
    2%	?	-26%	0%	-4%	/	-13%	/
[9] CCn1c(=N)n(CC(=O)c2ccco2)c2ccccc21
    1%	?	2%	2%	17%[3.69 µM]	-2%	6%	1.1%
[10] COc1ccc(C2/C=C\CN(C(=O)NC34CC5CC(CC(C5)C3)C4)CC(=O)N2Cc2ccc(F)cc2)cc1 (stereo not drawn)
    -9%	/	/	-11%	-9%	/	-18%	/
[11] Cc1ccc(C(=O)NC2(O)C(=O)c3ccccc3C2=O)cc1C
    -1%	-2%[46.1 µM]	?	1%	19%	/	-5%	/
[12] Cc1ccc(NC(=O)CCC(=O)N2CCC(C)CC2)c([N+](=O)[O-])c1
    -15%	/	/	?	5%	/	-14%	/
[13] CCOC(=O)c1ccc(Nc2nc(C)nc3c2nnn3Cc2ccccc2)cc1
    23%	/	/	2%	6%	/	-14%	/
[14] C/C(CCc1ccc2c(c1)OCO2)=N\N=C1\NC(=O)CC(C(=O)Nc2ccccc2)S1 (stereo not drawn)
    11%	2%	-14%	-12%	1%	-4%	-13%	-4.0%
[15] CC(C)CNc1c(N)n(CC(C)C)c(=O)[nH]c1=O
    -5%	13%[46.1 µM]	18%[46.1 µM]	-1%	3%	/	6%	/
[16] COc1ccc(CNCCc2ccc(Cl)cc2)cc1OCc1ccccc1
    /	?	?	-3%	-11%	/	-21%	/
[17] Cc1c(C#N)c2ccccc2n1CC(=O)NC(C)c1ccccc1 (stereo not drawn)
    -3%	5%	4%	8%	1%	4%	11%	2.7%
[18] CCCCn1c(N)c(N(CC(C)C)C(=O)C2CC(=O)N(CCc3ccccc3)C2)c(=O)[nH]c1=O (stereo not drawn)
    11%	?	6%	0%	-22%	/	12%	/
[19] NNC(=O)c1ccc(CSc2nc3ccccc3s2)cc1
    19%	5%[46.1 µM]	11%[46.1 µM]	0%	-14%	/	-15%	/
[20] CN(C)S(=O)(=O)c1ccc(N2CCCC2)c(C(=O)OCC(=O)NC2(C#N)CCCCC2)c1
    /	2%	-5%	-2%	-9%	/	27%	/
[21] CCn1c(COc2ccc(C)cc2)nnc1SCC(=O)NNC(=O)c1ccc(OC)cc1
    17%	?	2%	17%	4%	6%	-16%	-1.4%
[22] NS(=O)(=O)c1ccc(CCNC(=O)CN2CCC(Cc3ccccc3)CC2)cc1
    /	?	-16%[46.1 µM]	-1%	4%	/	-30%	/
[23] O/N=C/c1ccc(-c2ccccc2OC(F)(F)F)o1
    -4%	?	-11%	-1%	-18%	/	-13%	/
[24] CCCCC1=NN2C(=N)CC(=O)N=C2S1
    21%	-1%	-25%	6%	9%	-2%	-20%	5.3%
[25] CCn1c(C(=O)O)c(S(=O)(=O)c2ccc(Cl)cc2)c2ccccc21
    7%	/	/	2%	-12%	/	-7%	/
[26] CC(C(=O)Nc1ccccc1Cl)N(c1ccccc1)S(C)(=O)=O (stereo not drawn)
    -7%	5%[46.1 µM]	-9%	0%	13%	/	11%	/
[27] COc1ccccc1CNC(=O)c1cnc(N2CCCC2)nc1C
    /	/	-1%[46.1 µM]	/	/	-4%	-1%	-0.1%
[28] Cc1cc(C)n2nc(SCCOc3ccccc3F)nc2n1
    /	21%[46.1 µM]	5%	1%	22%	/	0%	/
[29] O=C(N/N=C/c1ccc(F)cc1)c1c(O)c2ccccc2[nH]c1=O
    4%	17%	-2%	-26%	-17%	?	?	-3.2%
[30] CCc1ccc2c(c1)C1(NN=C(c3ccccc3)S1)C(=O)N2 (stereo not drawn)
    ?	?	-20%	-94%	-2%	-24%	?	-3.9%
[31] Cc1occc1C(=O)OCC(=O)Nc1ccc(F)cc1
    -18%	19%	?	-3%	-10%	-1%	25%	-1.0%
[32] COc1cc2c(cc1OC)C(c1cccc(F)c1)CC(=O)N2 (stereo not drawn)
    -10%	3%[46.1 µM]	-9%[46.1 µM]	-3%	7%	/	-3%	/
[33] COCCNC(=O)c1ccc(NS(=O)(=O)c2cc(C)ccc2C)cc1
    -6%	-3%	1%	2%	5%	0%	51%[activator]	3.0%
[34] O=C(O)CCc1ccc(-c2ccc(Cl)cc2)n1CC(=O)Nc1ccccc1
    1%	/	/	1%	2%	/	-2%	/
[35] COc1cc(NC(=O)c2ccc(Br)o2)ccc1NC(=O)c1ccccc1Cl
    ?	-10%	?	-22%	13%	?	0%	-1.3%
[36] Cc1ccc(NC(=O)CCc2c(C)nc3c(-c4ccc(F)cc4)c(C)nn3c2C)cc1F
    /	-1%[46.1 µM]	-8%[46.1 µM]	/	/	-8%	-27%	0.7%
[37] CCOC(=O)CSC1=C(C#N)C(=O)NC2(CCCCC2)S1
    3%	4%&4%	0%	-4%	17%	-1%	-11%	-7.9%
[38] O=C(NCc1cccc(Cl)c1)c1ccc2nc[nH]c2c1
    3%	?	2%	14%	-13%	-4%	20%	-3.5%
[39] COc1cccc(OC)c1C(=O)NC(=O)Nc1c(F)c(F)c(F)c(F)c1F
    7%	/	/	1%	0%	/	-20%	/
[40] Oc1ccc(C(=S)N2CCN(c3cccc(Cl)c3)CC2)cc1
    /	?	?	-1%	-3%	/	-23%	/
[41] Cc1cc(C)c(S(C)(=O)=O)c(=O)[nH]1
    1%	-7%[46.1 µM]	8%[46.1 µM]	1%	9%	/	8%	/
[42] CC(=O)Nc1cc(C(=O)N(C)Cc2ccco2)ccc1Sc1ccc(Cl)cc1
    -16%	-13%	-13%	-13%	/	?	3%	-5.7%
[43] CC(C)OCCCn1c(=O)c2ccccc2n2c(-c3ccc(F)c(F)c3)nnc12
    /	?	1%[46.1 µM]	/	/	-6%	11%	-2.8%
[44] Cc1nnc(SCC(=O)NC23CC4CC(CC(C4)C2)C3)s1
    -6%	-2%[46.1 µM]	4%[46.1 µM]	-2%	7%	/	5%	/
[45] N=c1oc2ccc([N+](=O)[O-])cc2cc1C(=O)NCc1ccccc1
    5%	/	/	-4%	6%	/	?	/
[46] Cc1cccc(OCCCC(=O)Nc2nnc(C3CCCO3)s2)c1C (stereo not drawn)
    8%	?	-5%	4%	29%	/	-13%	/
[47] O=C(NC1CCCc2ccccc21)C1CCN(S(=O)(=O)c2cccc3nsnc23)CC1 (stereo not drawn)
    6%	4%	10%	1%	-2%	-10%	-6%	-6.6%
[48] O=C(N/N=C/c1ccoc1)c1ccc(Br)cc1
    4%	/	/	-2%	-7%	/	24%	/
[49] Nc1ccccc1C#Cc1ccc([N+](=O)[O-])cc1
    /	?	?	/	-18%	/	40%[activator]	/
[50] Cc1cc2ncn(S(=O)(=O)N3CCCCC3)c2cc1C
    -3%	0%	-1%	-14%	8%	-14%	/	-2.4%
[51] O=C(Oc1ccc([N+](=O)[O-])cc1)c1ccc2ccccc2n1
    -5%	6%	15%	-6%	-6%	-18%	/	-2.1%
[52] Nc1nc(OCC2CCCCC2)c2[nH]cnc2n1
    7%	/	/	3%	0%[18.4 µM]	/	9%	/
[53] COCCNC(=O)c1ccc(C)c(S(=O)(=O)Nc2ccc(C)cc2)c1
    -1%	-1%	1%	7%	-12%	5%	71%[activator]	5.5%
[54] O=C1CCC(C(=O)N(Cc2ccco2)C2(C(=O)NC3CCCC3)CCCCC2)N1 (stereo not drawn)
    2%	-10%[46.1 µM]	14%	10%	24%	-20%	-13%	-1.3%
[55] Cc1cc(F)ccc1NC(=O)Cn1cc(S(=O)(=O)NC(C)C)c(S(=O)(=O)NC(C)C)c1
    /	/	28%[46.1 µM]	/	/	6%	7%	-1.6%
[56] O=C(CCC(=O)N1CCc2ccccc21)Nc1ccccc1
    -17%	18%	-15%	-8%	-4%	-8%	16%	-2.7%
[57] O=C(NCCc1ccc(F)cc1)c1cc2ccccc2oc1=O
    14%	/	/	-2%	-4%	/	13%	/
[58] CCCCn1c(N)c(N(CCOC)C(=O)c2ccc(Br)o2)c(=O)[nH]c1=O
    /	-1%	-17%	-3%	-9%	/	0%	/
[59] CC(C)C(=O)Nc1ccc(C(=O)N2CCN(C(=O)c3ccco3)CC2)cc1
    3%	/	/	1%	/	0%	/	-1.1%
[60] Cc1ccc(C(C)C)c(OCC(=O)c2c(O)c3ccccc3oc2=O)c1
    /	-3%	-10%	/	7%	/	?	/
[61] Cc1nc(SCC(=O)NCc2ccc(F)cc2)c2c(=O)n(C)c(=O)n(C)c2n1
    12%	/	/	6%	-4%	4%	-17%	3.8%
